Screens: PubChem, National Center for Advancing Translational Sciences (NCATS)
GLA inh pH 4.5: inhibitors of human alpha-galactosidase A at pH 4.5 | P06280 | purified enzyme, 4-MU-alpha-Gal fluorescence, pH 4.5 | activity change, negative = inhibition, % at 105 µM | 230,000 tested, under 10 active | AID 1467; inconclusive = small, poorly fitted or top-dose-only inhibition, or a rising curve; inactive = flat fitted curve, though single readings scatter; no compound was filed as active;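 further: 0% = full activity with enzyme and -100% = basal without enzyme; dose as in the result columns while the protocol names 77 µM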
Target sequence (P06280 whole entry, looked up): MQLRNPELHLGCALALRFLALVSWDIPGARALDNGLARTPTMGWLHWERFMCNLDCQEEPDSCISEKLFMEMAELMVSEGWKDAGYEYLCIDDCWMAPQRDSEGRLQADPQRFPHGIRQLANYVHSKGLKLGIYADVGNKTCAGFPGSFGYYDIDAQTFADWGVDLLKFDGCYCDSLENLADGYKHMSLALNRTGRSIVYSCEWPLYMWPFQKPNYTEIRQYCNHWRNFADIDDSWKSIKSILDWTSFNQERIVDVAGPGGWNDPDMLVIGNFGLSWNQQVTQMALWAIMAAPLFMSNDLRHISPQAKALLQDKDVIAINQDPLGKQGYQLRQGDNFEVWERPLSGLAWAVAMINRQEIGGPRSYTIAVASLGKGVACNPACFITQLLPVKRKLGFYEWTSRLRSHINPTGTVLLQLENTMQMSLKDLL
Rango-impB inh: Rango-importin beta binding inhibition. Potency, µM (series often up to 92.2 µM), without a hit: at the highest dose inhibition of complex formation. actives 0.031% (n = 340,000). AID 540263. Q14974. Rango CFP/YFP FRET sensor + importin beta, 45 min; active = rising FRET ratio curve, often small or poorly fitted; inconclusive = mostly compound fluorescence or quenching in the first reads; inactive = flat curves in all reads;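 further: potency means the concentration at half of the fitted maximal effect; 0% = DMSO wells and 100% = buffer wells lacking importin beta; nearly all actives have a fitted effect of over 15% in size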
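FRET biosensor (snurportin 1 IBB flanked by EYFP and cerulean), 50 nM, with compound 5 min, then 0.125 microM importin beta in PBS, 1 mM DTT, 0.02% Tween-20, 0.1% BSA. CFP/YFP ratio read after 45 min at room temperature; pre-read flags interference.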
miR-21 reporter: raises the signal of a miR-21 reporter. HeLa miR-21 FLuc reporter, luciferase, 48 h. Potency, µM (series often up to 38.3 µM), inactives show top-dose reporter change, positive = more light. 340,000 tested, under 10 active; active = well fitted rising curve with a large enough effect; inconclusive = small, poorly fitted or top-dose-only effect; inactive = no such curve, though single readings can be large or run the other way;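 further: % of control where 0% means no effect; miR-21 action dims this reporter so a rising signal means less miR-21 action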
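HeLa miR-21-FLuc reporter line, endogenous miR-21; 2000 cells/well in DMEM/10% FBS; compound titration up to ~40uM final, 48 h, 37 degree Celsius; luciferase detection reagent, 15 min lysis, CCD luminescence.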
Rango dissoc inh: prevents RanGTP from dissociating the Rango-importin beta complex. Biochemical FRET Rango-importin beta, RanGTP-induced dissociation. AID 540253. Potency, µM (series often up to 46.1 µM), for the others: top-dose activity change, negative = inhibition. actives 0.071% (n = 340,000). O95149+P62826; active means falling FRET ratio curve, often poorly fitted, with flat reads before Ran was added; inconclusive means other falling curves, or compound fluorescence or quenching; inactive means flat or rising ratio curve;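 further: potency means the concentration at half of the fitted maximal effect; % of control where 0% means no effect; nearly all actives have a fitted effect of over 45% in size; -100% = wells without RanGTP and RCC1; the record marks most hits as doubtful in a second field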
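Rango FRET biosensor (snurportin-1 IBB flanked by N-terminal EYFP and C-terminal CFP10) at 0.1 uM, with 0.25 uM importin beta in PBS, 1mM DTT, 0.02% Tween-20, 0.1% BSA. 0.6 uM Ran, 2mM GTP and 0.2 uM RCC1 were then added for 45 min at room temperature. Inhibition read as loss of FRET rise.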
* = called active by the depositor; ? = inconclusive; . = not tested or not shown; & = joins results of further samples.

Rango dissoc inh,Rango-impB inh,miR-21 reporter,GLA inh pH 4.5,Molecule
-10%,6.1%,.,.,CC1CCC2(CC1)NC(=O)N(CC(=O)Nc1ccc3c(c1)OCO3)C2=O (centres undefined)
-12%,0.3%,-20%,.,Cc1nc(SCc2ccc(C#N)cc2)n[nH]1
16%,-0.4%,3%,.,COc1ccc(C(C(=O)NCC2CCCO2)N(Cc2ccccc2)C(=O)c2snc(C(N)=O)c2N)cc1OC (centres undefined)
2%,-2.1%,-7%,2,O=C(CS(=O)(=O)c1cn(Cc2ccc(Cl)cc2)c2ccccc12)N1CCOCC1
-8%,2.2%,-4%,3,COCCn1c(SCC(=O)Nc2ccccc2)nc2c1c(=O)[nH]c(=O)n2C
-6%,1.0%,2%,-8,O=C(Nc1ccon1)c1cccc(S(=O)(=O)N2CCCC2)c1
3%,1.4%,-7%,.,Cn1nccc1C(=O)NC1CC(C)(C)Cc2c1cnn2-c1ccc(F)cc1 (centres undefined)
-9%,2.3%,0%,-6,O=C1/C(=C/c2cccs2)SC(=S)N1NS(=O)(=O)c1ccccc1
-5%,-0.8%,-9%,-4,OCCOCCNc1ncnc2sc(-c3ccccc3)cc12
1%,-0.1%,.,.,C[C@@H]1CN([C@H](C)CO)C(=O)c2cc(NC(=O)Cc3cn(C)c4ccccc34)ccc2O[C@H]1CN(C)C(=O)Nc1ccc2c(c1)OCO2
3%,-2.3%,-1%,7,COc1ccc(N2C(=O)C3C(c4ccc(C(=O)O)cc4)NC(Cc4ccccc4)(C(=O)O)C3C2=O)c([N+](=O)[O-])c1 (centres undefined)
?,?,-7%,6,CSc1nsc(/C=C/Nc2cccc(Cl)c2)c1C#N
5%,-2.6%,-6%,-2,CCOC(=O)N1CCN(S(=O)(=O)c2cc(C)c(C)cc2C)CC1
-6%,-0.4%,-3%,-1,Cc1ccc(C)c(OCC(=O)NCCNC(=O)COc2cc(C)ccc2C)c1
-3%,-3.2%,-45%,-8,CC(=O)c1cccc(NC(=S)NC(=O)c2ccccc2)c1
20%,0.5%,-4%,-1,NC(=O)CSc1oc(-c2ccc(F)cc2)nc1S(=O)(=O)c1ccccc1
2%,-5.7%,1%,8,O=C1OCc2cccc([N+](=O)[O-])c21
17%,1.6%,-20%,2,COC(=O)c1sccc1S(=O)(=O)Nc1ccc(C)cc1
-5%,0.6%,2%,1,CC1CCCCN1C(=S)NCc1ccco1 (centres undefined)
.,.,0%,3,CCOC(=O)c1[nH]c(C)c(C(=O)O)c1C
7%,-3.3%,-4%,.,CC(=O)NC12CC3CC(C1)CC(C(=O)N1CCN(S(=O)(=O)c4ccc(Cl)s4)CC1)(C3)C2
-16%,?,0%,-15,CCCCCCCCNC(=O)/C(C#N)=C/c1ccccc1[N+](=O)[O-]
1%,-4.4%,.,.,O=C(COC(=O)c1cccc(Br)c1)NCc1ccco1
1%,-0.9%,.,.,CCOC(=O)Cc1csc(SCC(=O)N(CC(C)C)c2c(N)n(Cc3ccccc3)c(=O)[nH]c2=O)n1
12%,5.7%,-2%,.,Cc1nc2ccccc2c(=O)n1NC(=O)c1ccccc1
2%,-0.3%,0%,.,CCc1cc(=O)oc2cc(C)cc(OC(C)C(=O)NC(Cc3c[nH]c4ccc(O)cc34)C(=O)O)c12 (centres undefined)
0%,4.0%,0%,-5,COCCCN1C(=O)C(=O)/C(=C(/O)c2ccc(OC(C)C)cc2)C1c1ccncc1 (centres undefined)
26%,6.1%,10%,.,CC(C)C[C@H]1CN=C(Nc2ccccc2)N1CC1CCCCC1
34%,-11%,0%,-7,C=C1SC(=Nc2c(C)cccc2Cl)N(C(=O)c2sc3ccccc3c2Cl)C12CCCCC2
-5%,-0.9%,.,.,CCc1noc(C)c1C(=O)NNC(=O)c1nn(C)c(=O)c2ccccc12
14%,0.1%,-5%,.,CCCc1n[nH]c(=O)c2c1nnn2Cc1ccccc1
-10%,2.6%,3%,.,Cc1[nH]c(C)c(S(=O)(=O)N2CCN(c3ccccc3)CC2)c1C(=O)N1CCCC1
-13%,-2.4%,3%,-1,CCN1CCCC1CN(Cc1cc2ccc(C)cc2[nH]c1=O)C(=S)Nc1ccccc1OC (centres undefined)
?,?,-7%,1,CC(=O)Nc1ccc(/C=C2\Sc3ccccc3C2=O)cc1
-12%,2.9%,.,.,O=C(O)c1ccc(O)cc1O
2%,-2.5%,-10%&-14%,-1,CCCC(=O)n1nc(-c2cccnc2)nc1NCc1ccccc1

Whole records as entered above. Order of values: Rango dissoc inh, Rango-impB inh, miR-21 reporter, GLA inh pH 4.5
`COC(=O)c1sccc1S(=O)(=O)Nc1ccc(C)cc1` as listed: 17%, 1.6%, -20%, 2
`O=C(Nc1ccon1)c1cccc(S(=O)(=O)N2CCCC2)c1` as listed: -6%, 1.0%, 2%, -8
`CCCCCCCCNC(=O)/C(C#N)=C/c1ccccc1[N+](=O)[O-]` as listed: -16%, ?, 0%, -15
`COCCCN1C(=O)C(=O)/C(=C(/O)c2ccc(OC(C)C)cc2)C1c1ccncc1` (centres undefined) as listed: 0%, 4.0%, 0%, -5

(more compounds)
Rango dissoc inh,Rango-impB inh,miR-21 reporter,GLA inh pH 4.5,Molecule
-6%,?,0%,-10,Cc1ccc(NC(=O)C[n+]2ccccc2)cc1[N+](=O)[O-]
2%,-3.9%,-2%,-9,O=C(COc1ccc2ccc(=O)oc2c1)Nc1ccc(N2CCOCC2)cc1
8%,-0.5%,-5%,7,Cc1ccc(S(=O)(=O)N2CCN(C)CC2)c(C)c1
-19%,-2.4%,23%,.,COc1ccc(CC(=O)NCc2ccc(-n3cccc3)cc2)cc1OC
-8%,5.5%,-16%,-5,COc1ccc(Oc2nc(C)cc(C)c2S(=O)(=O)c2ccc(C)cc2)cc1
?,?,-32%,-4,C(=N\NC1=Nc2cccc3cccc1c23)/c1cccnc1
2%,3.2%,-5%,.,CCCCN(CCCNC(=O)C1CCCN(S(=O)(=O)CCC)C1)Cc1ccccc1 (centres undefined)
-10%,-1.6%,1%,9,Cc1cccc(C)c1NC(=O)N1CCC(c2nc3ccccc3o2)CC1
3%,3.4%,?,-5,CCc1ccc(OCCOCC(O)CN2CCN(Cc3ccc(Cl)cc3)CC2)cc1 (centres undefined)
-9%,0.2%,0%,-4,COc1ccc(CN(C(=O)CN2C(=O)c3ccccc3S2(=O)=O)C(C(=O)NCC2CCCO2)c2ccncc2)cc1 (centres undefined)
.,.,-15%,-1,CCOc1ccc(C2C(C#N)=C(N)SC(N)=C2C#N)cc1OC
4%,-1.9%,-6%,-9,Cc1ccc(Nc2ccc(C(=O)N3CCCC3)cn2)c(C)c1
2%,-0.5%,-28%,6,Cc1cc2nc(N)sc2cc1C
-17%,-0.7%,5%,.,Cc1cccc(C(=O)Nc2ccccc2C(=O)NCc2ccco2)c1
19%,-1.5%,1%,5,Cc1ccccc1/C(N)=N/O
12%,-0.8%,5%,.,Cc1ccc(C)c(NC(=O)CSc2nnc(NC(=O)C3CC3)s2)c1
?,?,-2%,-7,COc1ccc(/C=C2\SC(=S)N(C(C(=O)O)c3ccccc3)C2=O)c(OC)c1 (centres undefined)
?,?,0%,.,CN1CCc2c(sc(NC(=O)Cc3ccccc3)c2C#N)C1
-6%,-2.1%,0%,0,Cc1cc(C(=O)COC(=O)Cc2n[nH]c(=O)c3ccccc23)c(C)n1-c1ccc2c(c1)OCCO2
-16%,-4.5%,-3%,.,COc1ccc(C(C)NC(=O)Cc2cccs2)cc1 (centres undefined)
-8%,-3.9%,0%,1,O=S(=O)(c1ccc(Oc2ccc3oc4ccccc4c3c2)nc1)N1CCCC1
33%,2.5%,18%,0,Cc1ccc(NC(=O)C(C)c2ccc(-c3ccccc3)c(F)c2)cc1 (centres undefined)
-3%,?,.,.,Cc1nc2ccc3nc(NC(=O)c4ccco4)sc3c2s1
6%,-4.8%,8%,-7,CN1CCN(C2=C(Cl)C(=O)N(c3ccc(Cl)cc3)C2=O)CC1

Reprinted from the part before: 3 entries, then new ones.
Rango dissoc inh,Rango-impB inh,miR-21 reporter,GLA inh pH 4.5,Molecule
33%,2.5%,18%,0,Cc1ccc(NC(=O)C(C)c2ccc(-c3ccccc3)c(F)c2)cc1 (centres undefined)
-3%,?,.,.,Cc1nc2ccc3nc(NC(=O)c4ccco4)sc3c2s1
6%,-4.8%,8%,-7,CN1CCN(C2=C(Cl)C(=O)N(c3ccc(Cl)cc3)C2=O)CC1
?,-0.3%,3%,-15,COc1ccc(N2C(=O)[C@@H]3[C@H](C2=O)[C@H]2C=CC=NN2[C@@H]3C(=O)Nc2ccc(Cl)cc2)cc1
-14%,-0.8%,2%,.,NCC(=O)N1CCC(C(=O)N[C@@H](Cc2c[nH]c3ccccc23)C(=O)O)CC1
-18%,-3.4%,29%,-10,Cc1cc2c(NC(=O)Nc3ccc(C(F)(F)F)cc3)cccc2nn1
?,?,1%,3,CC1=N/C(=C\c2ccc3c(c2)OCO3)C(=O)N1c1ccc(C(=O)O)cc1
7%,3.1%,.,.,CCOC(=O)[C@H]1[C@H]2COc3ccccc3[C@@H]2N2C(=O)[C@@H](C)NC(=O)[C@@]12C
?,?,-5%,1,COc1ccc(N=CC=C2OC(C)(C)C(C)(C)O2)cc1OC
-13%,-3.3%,-18%,.,S=c1nc(Cc2ccccc2)[nH]c2ccccc12
11%,0.1%,0%,-1,CCOC(=O)N1CCN(c2c(NCCc3ccc(OC)c(OC)c3)c(=O)c2=O)CC1
-11%,-8.0%,0%,5,CCC1CCCCN1CCNC(=O)C1CCN(S(=O)(=O)c2c(C)noc2C)CC1 (centres undefined)
-8%,-0.8%,.,.,CC1Sc2ccc(C(=O)Nc3cc(S(C)(=O)=O)ccc3Cl)cc2NC1=O (centres undefined)
-3%,0.4%,1%,.,COc1ccc(C(=O)Nc2c(N)nc(SCC(=O)Nc3ccc(NC(C)=O)cc3)[nH]c2=O)cc1OC
8%,0.3%,-7%,-8,Fc1ccccc1NC(=S)N1CCN(Cc2ccc3c(c2)OCO3)CC1
1%,0.2%,3%,.,COc1ccc(Cl)cc1NC(=O)CN(C)C(=O)C12CC3CC(CC(Cl)(C3)C1)C2
?,1.6%,3%,.,C/C(=N\NC(=O)c1nnn(-c2nonc2N)c1C(C)C)c1ccc2ccccc2c1
-2%,-3.2%,2%,-4,Cc1cc2c(c(=O)o1)C(C(C)C)C(C#N)=C(N)O2 (centres undefined)
0%,0.9%,1%,.,CCn1nc(C)c(CN2CCCCC2C(=O)Nc2ccc(Oc3cccnc3)cc2)c1C (centres undefined)
-8%,2.6%,-1%,0,Cc1nnc(NC(=O)CCC(=O)NCc2ccco2)s1
-14%,?,4%,-13,Cc1nc(SCC(=O)N2CCc3ccccc3C2)c2c(C)c(C)sc2n1
9%,0.7%,-2%,-6,Cc1cc(SCC2=NNC(=O)C2)c(Cl)cc1Cl
25%,-0.7%,-22%,7,Cc1cc(C(F)F)n2ncc(C(=O)NCc3ccccc3)c2n1
-19%,-3.8%,1%,3,COCc1cc(=O)n2[nH]c(N)nc2n1
16%,3.9%,2%,-7,COc1cc(C(=O)n2nc(C)cc2C)cc(OC)c1OC
1%,?,1%,.,COC(=O)c1ccc(NC(=O)CN2CCN(CC#N)CC2)cc1
-2%,-4.0%,-8%,5,Cn1c(SCC(=O)NC2CC2)nnc1-c1ccco1
-6%,-0.1%,0%,4,COc1ccc(OC)c(C2NC(=O)NC(C)=C2C(=O)Nc2ccc(C)cc2)c1 (centres undefined)
-12%,?,-30%,?,Cc1ccc(N2N=C(c3ccc(F)cc3)CC2c2ccco2)cc1 (centres undefined)
-3%,1.2%,5%,.,CC1CN(c2nc(Nc3ccccc3F)nc(N)c2[N+](=O)[O-])CC(C)O1 (centres undefined)
11%,1.6%,5%,.,Cc1cccc(CN2CCCC(C(=O)Nc3ccccc3Oc3cccnc3)C2)c1 (centres undefined)
0%,-2.5%,-3%,.,O=C(Nc1ccc(C(=O)NC2CCCCC2)cc1)c1cccnc1
14%,0.3%,0%,4,COc1ccccc1NC(=O)COC(=O)c1cnc(C)cn1
-10%,-0.1%,-3%,6,O=C(CNC(=O)c1ccc(F)cc1)Nc1ccccc1C(F)(F)F

A portion of the library; count on the stated rates, not on these rows.
